# UUG fidelity: modulators of yeast start codon fidelity, primary screen, whole organism, S. cerevisiae, single point, plate reader; S. cerevisiae UUG-firefly luciferase reporter, luminescence/redox ratio; activity score, % at 18.7 µM; hit rate 0.13% among 350,000; AID 602363, 2012;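 active = replicate mean at a twofold rise or more, about +100% in these data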;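 also: firefly luciferase made from a UUG start codon reports start codon fidelity; reporter light over untreated wells divided by growth signal over untreated wells; some hits fall short of that in this replicate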
# eIF4H FP inh: human eIF4H binding inhibitors, primary screen, translation initiation inhibitor project, biochemical, uHTS, fluorescence polarization; Eukaryotic translation initiation factor 4H (Homo sapiens), Q15056; eIF4H fluorescence polarization binding assay; inhibition, % at 35 µM; hit rate 0.94% among 290,000; AID 2012, 2009;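 active = 50% or more with normal probe brightness, or confirmed in later tests; inconclusive = above 50% with abnormal brightness, or retests that disagree; inactive = below 50% or failed in later tests; about a fifth of its hits are not listed in these tables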;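 also: calls also rest on retests at 20 µM and on dose response follow-up; 0% = protein and probe with vehicle and 100% = probe without protein; strong numbers were not always called active; many hits fall short of the cut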
# Env fusion inh: inhibitors of HIV-1 Env-driven cell-cell fusion, primary screen, HeLa-JRFL effector, CEM21 target cells, luciferase. inhibition, % at 12.3 µM. hit rate 1.1% among 360,000;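 active = mean replicate inhibition score of at least 50 and every replicate individually at or above 50; inconclusive = only one of the two criteria met; inactive = mean below 50 and not all replicates reaching 50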;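 also: 0% = plate neutral controls and 100% = maraviroc near 300 nM; one replicate is shown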
# Rce1 inh: yeast Rce1p protease inhibitors, primary screen, biochemical, fluorescence, cell-free homogeneous | CAAX prenyl protease 2 (Saccharomyces cerevisiae (strain ATCC 204508 / S288c)), Q03530 | yeast membranes, quenched prenylated peptide cleavage fluorescence | calls only | hit rate 0.27% among 290,000;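 active = fall in fluorescence gain of 50% or more versus controls, with final raw signal at or below 3038400; inconclusive = same 50% fall but final raw signal above 3038400; inactive = fall in fluorescence gain under 50%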;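 also: plate controls were neutral control wells for no effect and wells lacking membranes for full effect; tested at 10 µM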
# MT1-MMP act inh: blockers of MT1-MMP proenzyme processing, primary screen, HT1080 RFP-PRO-GFP cells, GFP/RFP fluorescence | Matrix metalloproteinase-14 (Homo sapiens), P50281 | hit rate 0.061% among 360,000 | GFP/RFP ratio change, % at 20 µM | GFP/RFP ratio fluorescence, overnight; percent of plate control window, DMSO zero | AID 651647, 2012;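 active = GFP/RFP ratio change of at least 30% with cell ATP level not reduced by more than half and red fluorescence within 50% of control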; also: strong numbers were not always called active
#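 Assay system – RFP-PRO-GFP reporter HT1080 cells · Compound dosing – single dose of 20 µM compound, 1% DMSO final · Incubation – overnight compound exposure at 37 °C · Measure – GFP/RFP fluorescence ratio · Benchmarks – DMSO wells and RFP-L50D-GFP cells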
# PABP polyA inh: PABP poly(A) RNA binding inhibitors, primary screen, biochemical, fluorescence polarization, uHTS. hit rate 1% among 290,000. AID 2014, 2009. Polyadenylate-binding protein 1 (Homo sapiens), P11940. inhibition, % at 35 µM;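 active = 50% or more with normal probe brightness, or confirmed in later tests; inconclusive = above 50% with abnormal brightness, or retests that disagree; inactive = below 50% or failed in later tests; about a fifth of its hits are not listed in these tables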;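 also: calls also rest on retests at 20 µM and on dose response follow-up; controls were probe without protein and protein plus probe with vehicle; some compounds called inactive have numbers as strong as hits; many hits fall short of the cut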
# Target sequence (P11940 whole entry, looked up): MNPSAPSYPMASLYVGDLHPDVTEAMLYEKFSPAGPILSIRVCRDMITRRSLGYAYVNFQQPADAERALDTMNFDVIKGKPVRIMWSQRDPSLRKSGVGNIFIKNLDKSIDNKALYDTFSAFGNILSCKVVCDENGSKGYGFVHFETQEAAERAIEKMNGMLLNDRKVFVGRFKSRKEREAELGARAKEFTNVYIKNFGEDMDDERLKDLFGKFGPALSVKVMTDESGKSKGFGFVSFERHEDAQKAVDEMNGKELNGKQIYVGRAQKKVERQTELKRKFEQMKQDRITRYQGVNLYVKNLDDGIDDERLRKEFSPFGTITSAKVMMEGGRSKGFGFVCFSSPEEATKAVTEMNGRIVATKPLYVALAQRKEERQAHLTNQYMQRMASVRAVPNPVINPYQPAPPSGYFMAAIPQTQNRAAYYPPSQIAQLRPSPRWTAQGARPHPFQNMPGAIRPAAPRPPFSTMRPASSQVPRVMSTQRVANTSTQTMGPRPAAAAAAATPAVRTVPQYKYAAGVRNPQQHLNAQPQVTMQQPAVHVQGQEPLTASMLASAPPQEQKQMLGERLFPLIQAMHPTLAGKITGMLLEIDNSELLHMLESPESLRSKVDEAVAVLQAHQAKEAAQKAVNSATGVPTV
# CSC inhib: cancer stem cell viability inhibitors, primary screen, luminescence; hit rate 1.1% among 300,000; AID 2717, 2010; cancer stem cell-like cells viability; inhibition, % at 7.5 µM;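 active = mean at 75% or more and at least half the replicates too; inconclusive = mean and replicates disagree; tested in HMLE shEcad cells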;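 also: 0% = median of negative and 100% = median of positive control wells; the first replicate is given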
# MT1-MMP act inh RFP: recorded beside MT1-MMP act inh, whose call it bears; RFP signal change, %; measured here: RFP expression control read;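 0 = vehicle wells; hits needed this value within 50% of zero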
# Numbers without * were called inactive; i = inactive; ? = inconclusive; nt = no result given; [ ] = another dose, or the depositor's remark. A portion of the library; count on the stated rates, not on these rows.
SMILES,UUG fidelity,eIF4H FP inh,Env fusion inh,Rce1 inh,MT1-MMP act inh,MT1-MMP act inh RFP,PABP polyA inh,CSC inhib
CCc1cccc(OCCCN2C(=O)NC(C)(C)C2=O)c1,14.3,-13.2,8.2,i,-2.1,-5.4,-3.4,-4.6
CCn1cc(CCC(=O)O)c(C)n1,nt,23.3,6.0,i,0.3,2.4,1.2,5.5
Cc1cc(C(=O)N/N=C/C=C/c2ccccc2)c(C)o1,nt,-14.0,10.3,i,1.3,2.0,-9.6,-10.7
COc1ccc(-c2cc3ccc(OC(C)C(=O)O)cc3oc2=O)cc1 (stereo not given),-15.2,-3.3,-16.9,?,-20.1,-4.5,8.8,68.2
O=C(NC(=S)N1CCN(c2ccc([N+](=O)[O-])cc2)CC1)c1ccccc1,nt,3.3,-9.9,i,8.5,0.1,29.8,0.8
Cn1cnc(S(=O)(=O)N2CCCC(c3cc(C(=O)Nc4ccc(F)c(Cl)c4)no3)C2)c1 (stereo not given),-18.7,nt,17.8,nt,2.7,-2.4,nt,nt
COc1cccc(N2CCN(c3nc(C)cc(C)c3C#N)CC2)c1,-6.1,8.1,-8.1,i,0.8,2.4,-1.4,4.7
Cc1nn(CC(=O)NCc2cccc3ccccc23)c(=O)c2ccccc12,16.8,2.1,-45.4,i,0.3,-5.4,-3.1,26.9
O=C(Nc1nccs1)c1ccc(F)c(S(=O)(=O)N2CCOCC2)c1,-20.7,-4.8,35.1,i,1.5,-2.9,-3.1,-11.1
O=C(NC1=NCCS1)c1ccncc1,-1.1,-8.1,nt,i,2.7,1.7,-7.6,-9.3
CC(C)(C)NC(=O)COC(=O)CNC(=O)c1cc(Cl)cc([N+](=O)[O-])c1,0.5,-10.3,-2.9,nt,2.2,1.6,0.1,-9.9
CCc1ccc(NC(=O)C(=O)N/N=C(\C)CC(=O)NCc2ccc(Cl)cc2)cc1,nt,3.0,-6.3,i,-2.0,-2.6,-7.9,-4.7
Cc1ccc[n+](-c2[nH]c(=O)sc2/C=N/N=C(\[O-])CCn2c3ccccc3c3ccccc32)c1,-10.3,11.0,10.8,i,4.9,3.2,11.1,-1.5
CCN(CC)C(=O)COc1ccc(N(C)S(=O)(=O)c2ccc(NC(C)=O)cc2)cc1,-12.5,-14.3,3.8,i,-0.9,0.9,5.3,-5.1
COc1ccccc1OCC(=O)N/N=C1/C=C(C)CC1,nt,-10.0,-18.1,i,2.6,5.6,-14.8,-4.0
O=C(COc1ccccc1)Nc1c2c(nn1-c1ccc(F)cc1)CS(=O)(=O)C2,3.2,-3.0,1.8,i,-1.3,0.2,-8.1,-4.6
Cn1c(=O)c2c(nc(N3CCCCCC3)n2CC(=O)c2ccc(Br)cc2)n(C)c1=O,-14.1,-5.3,nt,i,0.5,0.2,-0.1,-15.9
O=C(CSc1ccc(-c2ccc3c(c2)OCO3)nn1)Nc1nccs1,nt,-7.6,17.4,i,-1.8,-9.1,-13.6,-8.3
OCCC1CN(C/C=C/c2ccco2)CCN1Cc1ccccc1 (stereo not given),-4.8,39.5,-2.0,i,-3.2,4.5,21.9,5.1
O=C1CN(S(=O)(=O)c2cc(C(=O)O)ccc2Cl)c2ccccc2N1,-9.5,10.1,-9.7,i,-2.8,5.0,9.1,11.0
CCCCc1cc(=O)oc2cc(OCc3nn[nH]n3)ccc12,nt,-0.8,-4.3,i,-6.2,2.9,-0.7,-0.1
CCCOc1ccc(C(=O)NC(=S)Nc2nc3ccccc3s2)cc1,-14.9,-1.8,nt,i,0.7,6.8,2.3,-7.7
COc1ccc(N2C(=O)c3cccc4c(N(C)CCO)ccc(c34)C2=O)cc1,-7.7,?,-10.4,i,-169.2,-4.6,?,-4.8
NNC1=N[C@H]2CS(=O)(=O)C[C@H]2S1,nt,-4.9,2.5,i,2.7,1.0,-1.5,-19.6
CCN(c1ccccc1)S(=O)(=O)c1cc(C(=O)Nc2ccccc2Cl)ccc1F,nt,-3.1,-10.2,i,4.1,-2.1,29.7,nt
Cc1cccc2cc3c(NC(=O)C(C)(C)C)nn(CC(C)C)c3nc12,-4.6,-3.3,13.6,i,-7.8,-8.6,-5.7,16.1
O=C(c1cccs1)n1nc(-c2ccc(Cl)cc2)nc1NCc1ccco1,nt,-2.1,-108.6,i,-1.2,-0.2,2.4,4.9
O=C1NCCCC1C(=O)NCCNC(=O)C(F)(F)F (stereo not given),-13.7,-6.6,nt,i,3.4,3.6,-6.9,-12.9
O=C(CN1CCCCCC1)Nc1ccccc1,nt,8.9,21.6,i,1.8,1.2,0.4,6.7
CC12CCC3c4cc(CN5CCOCC5)c(O)cc4CCC3C1CCC2=O (stereo not given),-2.9,nt,-7.6,nt,-0.9,-1.7,nt,nt
Fc1cccc(Cl)c1CSc1nnc(CN2CCOCC2)n1-c1ccccc1,-13.1,-1.9,nt,i,3.2,1.1,-3.0,14.3
O=C(Nc1ccccc1)N(Cc1cccs1)C1CCCC1,3.7,9.4,nt,i,-1.6,-0.8,-9.9,25.7
CC(C(=O)c1ccc(-c2ccccc2)cc1)[n+]1ccccc1 (stereo not given),-16.3,-13.6,45.7*,i,-3.6,-17.4,-3.4,14.8
CCn1c(SCC(=O)Nc2ccc(C)cc2)nnc1-c1ccccn1,-12.1,-8.8,-6.0,i,-0.9,0.6,-11.4,12.7
CC(C)(C)c1ccc(CNC(=O)c2ccc3c(c2)NC(=O)CO3)cc1,nt,1.1,-13.9,i,3.7,-4.0,-2.1,-5.2
COc1ccc2[nH]c(=O)c(CNc3ccccc3)cc2c1,-18.7,4.6,nt,i,1.2,6.2,17.6,0.9
CCN(Cc1ccccc1)C(=O)c1cc(S(=O)(=O)N2CCOCC2)cn1C,-13.5,6.6,2.6,i,0.2,2.8,11.6,-10.2
Cc1[nH]c(C)c(S(=O)(=O)N(C)Cc2ccccc2)c1C(=O)N1CCCCC1,2.8,-10.0,15.2,i,0.4,3.4,6.2,-14.4
CCCCCCCCS(=O)C1CCS(=O)(=O)C1 (stereo not given),22.5,3.3,nt,i,-0.2,3.2,-2.1,-13.0
CCn1c(COc2ccc3ccccc3c2C)nnc1SCC(=O)Nc1cccc(C(=O)O)c1,-4.9,-12.7,-0.8,i,-2.8,1.7,7.2,-4.6
COC(=O)c1cn(NC(=O)C2CCC(C(C)(C)C)CC2)c(=O)c2ccccc12 (stereo not given),-4.5,1.5,-35.9,nt,-0.4,-0.4,-3.4,-10.7
Cc1cc(=O)oc2c3c(ccc12)OC/C3=N/N,nt,0.9,3.4,i,1.0,2.0,8.5,-12.0
O=c1sc(Nc2ccccc2)nc2ccsc12,11.1,-1.4,-98.3,i,-2.9,-3.7,9.5,-5.3
Cc1oc(-c2cc(F)ccc2F)nc1CN1CCN(c2ncnc3ccccc23)CC1,15.3,4.8,42.3,i,-0.1,-29.3,12.8,1.9
Oc1ccc(-c2cnc3ccccc3n2)cc1,nt,nt,-87.8,i,nt,nt,nt,3.8
COc1cc(NC(=O)Cn2cnc3c(OCc4ccccc4)ncnc32)cc(OC)c1OC,-4.5,nt,1.1,nt,6.3,-1.3,nt,nt
Cc1ccc(-c2nc3ccccc3nc2Cl)cc1,nt,-4.4,-10.2,i,-2.4,-2.7,5.3,7.7
O=C(NCc1ccncc1)Nc1ccccc1Cl,-1.3,21.8,-14.4,i,0.2,-6.7,-11.1,-6.9
N/C(=N\N=C\c1ccc2c(c1)OCO2)SC1CC(=O)N(c2ccc(C(=O)O)cc2)C1=O (stereo not given),-13.4,4.9,10.5,i,1.3,1.3,5.3,2.8
COc1ccc(C(=O)N/N=C/C(C)c2ccccc2)cc1OC (stereo not given),-16.1,1.6,-16.8,i,0.3,-7.6,2.0,-7.9

# Molecules shown so far that have a COOH group, in the order listed:
SMILES,UUG fidelity,eIF4H FP inh,Env fusion inh,Rce1 inh,MT1-MMP act inh,MT1-MMP act inh RFP,PABP polyA inh,CSC inhib
CCn1cc(CCC(=O)O)c(C)n1,nt,23.3,6.0,i,0.3,2.4,1.2,5.5
COc1ccc(-c2cc3ccc(OC(C)C(=O)O)cc3oc2=O)cc1 (stereo not given),-15.2,-3.3,-16.9,?,-20.1,-4.5,8.8,68.2
O=C1CN(S(=O)(=O)c2cc(C(=O)O)ccc2Cl)c2ccccc2N1,-9.5,10.1,-9.7,i,-2.8,5.0,9.1,11.0
CCn1c(COc2ccc3ccccc3c2C)nnc1SCC(=O)Nc1cccc(C(=O)O)c1,-4.9,-12.7,-0.8,i,-2.8,1.7,7.2,-4.6
N/C(=N\N=C\c1ccc2c(c1)OCO2)SC1CC(=O)N(c2ccc(C(=O)O)cc2)C1=O (stereo not given),-13.4,4.9,10.5,i,1.3,1.3,5.3,2.8

# Other compounds
SMILES,UUG fidelity,eIF4H FP inh,Env fusion inh,Rce1 inh,MT1-MMP act inh,MT1-MMP act inh RFP,PABP polyA inh,CSC inhib
COC(=O)C1CCN(C(=O)COC(=O)Cc2c[nH]c3ccccc23)CC1,0.6,-9.1,nt,i,-0.3,3.1,3.0,-1.6
COCCN(Cc1cc2cc3c(cc2n2nnnc12)OCO3)C(=O)c1ccccc1F,-11.0,-2.9,-5.5,i,-2.6,-0.9,-1.0,6.1
CC1=C(C(=O)N2CCOCC2)C(c2ccccc2F)C2=C(CCCC2=O)N1 (stereo not given),-4.1,-4.7,nt,i,1.0,-0.1,-4.0,nt
C[C@@H]1CN([C@H](C)CO)S(=O)(=O)c2ccc(Br)cc2O[C@@H]1CN(C)C(=O)NC1CCCC1,-13.0,nt,-0.1[16.7 µM],nt,2.7,0.4,nt,nt
Cc1cccc(C(C(N)=O)c2ncc(C(F)(F)F)cc2Cl)c1 (stereo not given),nt,-2.3,-4.9,i,-0.4,-0.1,-2.8,-9.1
COc1ccccc1-c1c(C(F)(F)F)oc2cc(OS(C)(=O)=O)ccc2c1=O,8.7,-6.8,nt,i,-6.6,-27.5,1.7,-9.5
O=C(C(=O)N1CCN(Cc2ccccc2)CC1)c1c[nH]c2ccccc12,-10.1,nt,-13.9,nt,-4.3,0.9,nt,-4.7
N#Cc1cc2[nH]c3ccccc3c2[n+](-c2ccc([N+](=O)[O-])cc2)c1N,-3.9,13.5,3.7,i,5.4,3.0,-3.2,-9.0
COc1ccc(NC(=S)N(C)CC2COc3ccccc3O2)cc1 (stereo not given),-16.3,8.6,17.5,i,3.2,4.1,-5.5,-8.4
C=CCn1c(SCc2csc(C)n2)nc2sc3c(c2c1=O)CCC(C)C3 (stereo not given),2.2,0.6,28.3,i,0.5,-3.0,1.5,-6.2
CC(C)OC(=O)CN1C(=O)C(=O)c2ccccc21,-19.2,2.2,19.4,i,1.1,8.5,11.3,13.5
CC(=O)c1cccc(NC(=S)N2CCc3ccccc32)c1,-18.2,9.8,-36.8,i,0.0,-0.4,0.7,-4.1
CCOc1cc(S(=O)(=O)N2CC=C(c3ccc(F)cc3)CC2)c(OCC)cc1-n1cnnn1,-17.6,-2.3,nt,i,-3.3,-13.2,-2.6,47.0

# High-throughput results as filed in PubChem.
